Screening data as filed in PubChem.
Six1-Eya2 inh: qHTS Assay for Inhibitors of the Six1/Eya2 Interaction; Homeobox protein SIX1 (Homo sapiens) + Protein phosphatase EYA2 (Homo sapiens), …; AlphaScreen GST-Six1/His-Eya2 binding, biochemical; active compounds read low; control for the full effect not named in the record; activity change, % (no concentration beside the values); actives 0.56% (n = 360,000); AID 651725, 2012; in the data active = activity change below about -65%; inconclusive = about -30% to -65%; inactive = above about -30%; further: on the % scale 0 is the no-effect control and ±100 the full control effect
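Compounds are tested against tagged Six1 and Eya2 proteins bridged by glutathione donor and nickel acceptor beads; after a one-hour incubation at 37 °C without light, AlphaScreen emission is recorded.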
TRPML1 ag: qHTS for Agonists of the Human Mucolipin Transient Receptor Potential 1 (TRPML1); Mucolipin-1 (Homo sapiens), Q9GZU1; TRPML1-expressing cells, Ca2+ dye fluorescence, FDSS; host cell line not named in the record; reference of the full effect not given here; activation, % (concentration not given with the values); actives 0.12% (n = 410,000); AID 624414, 2012; in the data active = activation above about 50%; inconclusive = about 30% to 50%; inactive = below about 30%; further: 0% is about no effect; the text of the record puts the active cut at 80%
Target sequence (Q9GZU1 whole entry, looked up): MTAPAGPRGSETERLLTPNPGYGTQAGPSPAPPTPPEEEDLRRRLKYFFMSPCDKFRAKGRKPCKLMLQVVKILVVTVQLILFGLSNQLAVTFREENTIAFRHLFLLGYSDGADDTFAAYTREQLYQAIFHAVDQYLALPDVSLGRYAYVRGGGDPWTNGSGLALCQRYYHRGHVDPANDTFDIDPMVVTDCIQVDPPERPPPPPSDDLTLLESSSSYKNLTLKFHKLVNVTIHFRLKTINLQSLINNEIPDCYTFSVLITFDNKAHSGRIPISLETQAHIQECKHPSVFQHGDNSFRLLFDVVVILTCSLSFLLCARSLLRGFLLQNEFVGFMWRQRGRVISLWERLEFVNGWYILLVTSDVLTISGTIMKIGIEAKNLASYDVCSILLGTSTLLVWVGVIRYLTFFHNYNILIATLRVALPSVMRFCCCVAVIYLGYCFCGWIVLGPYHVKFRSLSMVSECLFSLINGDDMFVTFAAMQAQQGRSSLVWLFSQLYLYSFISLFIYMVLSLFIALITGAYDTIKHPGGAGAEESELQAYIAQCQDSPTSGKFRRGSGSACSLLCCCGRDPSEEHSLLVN
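Calcium fluorescence on an FDSS kinetic reader gave the read-out. Tet-induced TRPML1-DL cells were plated overnight, dye-loaded (Ca8 with quencher, 45-90 min, room temperature, dark), then read 110 s after compound addition, and again 110 s after 4uM final 54-4 (EC80).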
D2 PAM: Beta-Arrestin HTS for Positive Allosteric Modulators of the Human D2 Dopamine Receptor: Potentiators; D(2) dopamine receptor (Homo sapiens), P14416; DiscoveRx D2 beta-arrestin cells, luminescence, 90 min; 100% = 57 uM dopamine signal; potentiation, % (no concentration beside the values); actives 0.23% (n = 360,000); AID 624464, 2012; active = potentiation of 50% or more; inconclusive = 30% to 50%; inactive = 30% or less;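 further: compound concentration not given in the record; tested on top of an EC20 dose of dopamine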
Target sequence (P14416 whole entry, looked up): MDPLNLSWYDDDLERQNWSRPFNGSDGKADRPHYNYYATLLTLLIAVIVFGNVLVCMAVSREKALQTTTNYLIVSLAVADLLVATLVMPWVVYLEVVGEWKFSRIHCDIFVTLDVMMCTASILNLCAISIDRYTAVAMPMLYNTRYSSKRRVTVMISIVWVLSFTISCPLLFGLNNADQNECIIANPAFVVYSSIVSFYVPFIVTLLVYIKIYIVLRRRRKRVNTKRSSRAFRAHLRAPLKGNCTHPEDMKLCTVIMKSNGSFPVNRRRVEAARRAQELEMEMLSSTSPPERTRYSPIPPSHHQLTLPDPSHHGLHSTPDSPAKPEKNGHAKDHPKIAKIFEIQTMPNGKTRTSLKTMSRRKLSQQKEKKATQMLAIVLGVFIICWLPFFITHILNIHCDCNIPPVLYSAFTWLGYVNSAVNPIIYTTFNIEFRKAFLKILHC
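PathHunter D2 cells, attached overnight at 37 deg C, received compound in DMSO plus dopamine at EC20 (50 nM final) for 90 min at 37 deg C. Beta-arrestin recruitment was read as luminescence after 1 h with detection reagent at ambient temperature.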
D2 ag: Beta-Arrestin HTS for Positive Allosteric Modulators of the Human D2 Dopamine Receptor: Agonists; activation, % (concentration not given with the values); actives 0.084% (n = 360,000); AID 624465, 2012; DiscoveRx PathHunter D2 beta-arrestin, luminescence, 90 min; 100% = 57 uM dopamine signal; D(2) dopamine receptor (Homo sapiens), P14416; in the data active = activation above about 40%; inconclusive = about 15% to 40%; inactive = below about 15%; further: compound concentration not given in the record; the text of the record calls up to 30% inactive
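Agonist mode: compounds alone added to overnight-plated D2 PathHunter cells for 90 min at 37 C, with 57 uM final dopamine (EC100) defining full response. Beta-arrestin recruitment detected by chemiluminescent reagent, read after 1 h at ambient temperature.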
PINK1 expr mod: A Quantitative High throughput Screen to Identify Chemical Modulators of PINK1 Expression. PINK1 immunofluorescence, high-content cytometry, 24 h. Potency, µM (series often up to 76.6 µM), for the others: at the highest dose activation (PINK1 increase), usual class: activators. actives 0.2% (n = 410,000); active = well fitted activation curve with a large enough effect; inconclusive = small, poorly fitted or top-dose-only effect; inactive = flat fitted curve, though single readings scatter; cell line not stated here;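 further: potency means the concentration at half of the fitted maximal effect; % of control where 0% means no effect; nearly all actives have a fitted effect of over 65% in size; a mitochondrial uncoupler was the plate control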
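PINK1 protein level read as immunofluorescence by microplate cytometer in a fixed, stained stable cell line after 24 h exposure to five compound concentrations, with CCCP as control.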
CtBP-E1A blk: qHTS Assay for Inhibitors of the CtBP/E1A Interaction. AID 651724, 2012. activity change, % (no concentration beside the values). AlphaScreen GST-E1A/His-CtBP binding, 1536-well; active compounds read low; control for the full effect not named in the record. actives 0.49% (n = 340,000); in the data active means activity change below about -65%; inconclusive means about -30% to -65%; inactive means above about -30%; further: on the % scale 0 is the no-effect control and ±100 the full control effect
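Steps: dispense buffer (Tris pH 8.0, NaCl 300 mM, TCEP 1 mM, BSA, Tween 20); add 5X protein mix (GST-E1A, His-CtBP, 125 nM each); pin 23 nL compound; 2 h at 37 °C, dark; add 5X beads (50 ug/mL); 1 h; read.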
Numbers without * were called inactive; ? = inconclusive; nt = no result given; & = joins results of further samples; [ ] = dose if it differs, or a comment. Outcome played no part in choosing rows. Share with any hit: about 1.3%.

mol | Six1-Eya2 inh | TRPML1 ag | D2 PAM | D2 ag | PINK1 expr mod | CtBP-E1A blk
CCCOC(=O)CCCCCCCCC(O)CN1CCCCC1 (configuration not stated) | 10 | 0.1 | -7 | -1.5 | 0.8% | -2
O=c1[nH]c2ccc(S(=O)(=O)NCc3ccccn3)cc2s1 | 1 | 0.2 | -4 | -2.2 | -1.5% | 3
CC(C)CCN(C(=O)Nc1ccccc1)C(C)c1cccs1 (configuration not stated) | 2 | 2.1&-0.6 | -19 | -3.1 | 1.4% | 8
Cc1ccc(C(=O)NCCC(=O)NCc2ccco2)cc1 | 3 | -0.4 | -1 | 1.5 | 0.7% | 9
NS(=O)(=O)c1ccc(CNC(=O)Cc2ccc(S(=O)(=O)N3CCOCC3)s2)cc1 | 10 | 0.3 | 5 | -1.0 | 0.9% | -8
COc1cc(C)ccc1S(=O)(=O)NC(=O)C1(C)CCN1C(=O)COc1ccc(Cl)cc1 (configuration not stated) | -1 | -0.4 | -5 | 8.3 | 1.2% | 6
COc1ccc(OC)c(S(=O)(=O)N2CCC(C(=O)N3CCCC3)CC2)c1 | 3 | -0.5 | 2 | 1.3 | 2.7% | 9
COC(=O)CCSc1nc(N2CCOCC2)c2c(c1C#N)CC(C)(C)OC2 | 6 | 2.3 | 0 | -0.1 | 6.8% | -10
Cc1ccsc1C(=O)OCC(=O)NCc1ccc(Cl)cc1 | 7 | 2.3 | -2 | 3.4 | 0.5% | -11
O=C(CNC(=O)c1ccc([N+](=O)[O-])cc1)N/N=C/c1c[nH]c2ccccc12 | -11 | 1.9 | 22 | 2.7 | -2.8% | -3
Cc1oc(-c2cccc(Cl)c2)nc1CN1CCC(C(=O)N2CCN(c3ccccn3)CC2)CC1 | -3 | 0.4 | -8 | 0.2 | 2.1% | 1
CC(C)[C@H](NC(=O)c1ccccc1)C(=O)OCC(=O)N1CCCc2ccccc21 | 5 | 0.5 | -2 | -3.3 | 2.9% | -14
COc1cccc(/C=C(/C(=O)OCC(=O)NCC2CCCO2)c2ccccc2)c1 (configuration not stated) | -3 | 1.2 | -2 | 1.3 | 1.9% | 3
C[C@@H]1CN([C@H](C)CO)C(=O)CCCn2cc(nn2)CO[C@H]1CN(C)S(=O)(=O)c1ccccc1F | 5 | -0.1 | -8 | -5.3 | 2.3% | 1
O=C1CCC[C@@H]2Cc3nc4ccc(Cl)cc4cc3[C@@H]3CCN1[C@H]23 | -3 | -0.9&-0.9 | 9 | 1.9 | 0.8% | 1
C[C@H]1CN([C@@H](C)CO)C(=O)c2cc(-c3cccc(C#N)c3)cnc2O[C@H]1CN(C)C(=O)c1ccccn1 | 2 | 0.1 | -3 | -6.9 | 0.7% | 0
Cc1cccc(NC(=O)CC23CC4CC(C2)CC(n2nnc(C)n2)(C4)C3)c1 | -2 | 1.4 | -10 | -1.2 | -1.9% | -15
O=c1nccc(NCc2ccco2)[nH]1 | 4 | -1.0&-0.4 | -6 | -2.5 | -4.1%&0.7% | 5
CCOc1cc(CN2CCN(C(=O)c3cccc4ccccc34)CC2)ccc1OC | -3 | -0.6 | -15 | -2.7 | -1.0% | nt
Cc1ccc(S(=O)(=O)CCc2nnc(NC(=O)c3ccco3)s2)cc1 | 9 | -0.3 | -1 | -0.1 | -1.7% | 5
CC1(C)Cc2c(c(N3CCOCC3)nc3sc(C(=O)Nc4ccc(Cl)cc4)c(N)c23)CO1 | 8 | 0.5&0.0 | -5 | -3.5 | 11%&-1.1% | 4
COc1ccc(-n2c(C)cc(C(=O)NC3CCCCC3)c2C)cc1 | -5 | 1.0 | 2 | 0.8 | nt | 9
CC(C)(C#N)NC(=O)c1ccco1 | 6 | 0.5 | -25 | -1.0 | 1.5% | -1
CC1CCN(CCNC(=O)C2CCCN(c3ncnc4c3nc3n4CCCCC3)C2)CC1 (configuration not stated) | 0 | -0.7 | -35 | -0.9 | 0.1% | 2
O=C(COC(=O)c1cc(Br)ccc1O)c1ccc(F)cc1 | -4 | 3.8 | -4 | -2.2 | 3.9% | 5
CCn1c(=S)[nH]c2scc(-c3cccs3)c2c1=O | -5 | 0.7 | -19 | 2.2 | -1.0% | -17
O=C(NCc1ccc(Cl)cc1)c1ccc(OCC2CCCO2)cc1 (configuration not stated) | 4 | -0.2 | 3 | -0.1 | 4.2% | -8
O=C1CC(/C=C/c2ccccc2)(C(=O)NC2CCCC2)N1c1ccc(S(=O)(=O)N2CCCC2)cc1 (configuration not stated) | 1 | 0.7 | -10 | 1.4 | 2.5% | -17
O=C(NN=C1CCCCCC1)c1cccnc1 | -4 | 0.5 | 1 | -3.1 | 0.5% | nt
Cc1cc(=O)oc2cc(OCC(=O)Nc3nnc(CC(C)C)s3)ccc12 | 2 | 0.2 | -5 | -0.8 | -1.4% | 6

A different layout for part of the listing above.
Order of results: Six1-Eya2 inh, TRPML1 ag, D2 PAM, D2 ag, PINK1 expr mod, CtBP-E1A blk
Cc1cc(=O)oc2cc(OCC(=O)Nc3nnc(CC(C)C)s3)ccc12
    2, 0.2, -5, -0.8, -1.4%, 6
CC(C)(C#N)NC(=O)c1ccco1
    6, 0.5, -25, -1.0, 1.5%, -1
O=C(COC(=O)c1cc(Br)ccc1O)c1ccc(F)cc1
    -4, 3.8, -4, -2.2, 3.9%, 5
CC1(C)Cc2c(c(N3CCOCC3)nc3sc(C(=O)Nc4ccc(Cl)cc4)c(N)c23)CO1
    8, 0.5&0.0, -5, -3.5, 11%&-1.1%, 4

(cont.)
mol | Six1-Eya2 inh | TRPML1 ag | D2 PAM | D2 ag | PINK1 expr mod | CtBP-E1A blk
O=C(C(Cl)Cl)N1CCN(Cc2ccc3c(c2)OCO3)CC1 | 0 | -1.0 | -2 | 2.0 | -1.2% | nt
O=C(c1ccc(Cl)cc1)N1CCC(c2nc(-c3cccs3)no2)CC1 | 0 | 2.0 | -5 | -1.1 | 0.9%[38.3 µM] | -10
COc1ccc2[nH]cc(CCNC(=O)Cc3ccc(Cl)cc3)c2c1 | -1 | 0.2 | -3 | 4.0 | 2.7% | -5
O=C(NCc1ccccc1CN1CCCC1)c1cccc(S(=O)(=O)Nc2ccc(F)cc2)c1 | 2 | 0.9 | -32 | -2.7 | 4.2% | nt
O=C(CCNC(=O)c1ccc(Cl)cc1)NCC(c1ccco1)N1CCCC1 (configuration not stated) | 8 | 0.1 | -9 | -2.2 | -1.6% | 0
Cn1c(N)c(C(=O)COC(=O)Cc2ccc(F)cc2)c(=O)n(C)c1=O | 8 | 0.7 | -16 | -1.1 | -2.9% | 0
Cc1ccc(S(=O)(=O)N(CC(=O)NCC2CCCO2)Cc2ccc(F)cc2)cc1 (configuration not stated) | 4 | 0.6 | -2 | -2.0 | 3.8% | 5
CCOC(=O)N1CCN(C(=O)c2ccc3c(=O)n(-c4ccccc4F)c(=S)[nH]c3c2)CC1 | 10 | 0.6 | -2 | -5.9 | 2.8% | 22
O=C(NCC1CCCO1)C1CCCN(S(=O)(=O)c2cc(Cl)ccc2Cl)C1 (configuration not stated) | 1 | -0.3 | 7 | -0.2 | 2.4% | 4
Cc1cc(C)n(-c2ccc(C(=O)OCC(=O)Nc3ccccc3[N+](=O)[O-])cc2)n1 | -7 | 1.0 | 2 | -2.5 | 1.0% | -25
CCN(CC)S(=O)(=O)c1ccc(C)c(C(=O)Oc2cccc(-c3cnc4ccccc4n3)c2)c1 | -1 | 0.2 | -4 | -2.2 | -0.2% | 3
CC(Oc1ccc(Cl)cc1)c1ccnn1S(=O)(=O)c1ccccc1 (configuration not stated) | 34 | 2.4 | -7 | -7.7 | 2.1% | 33
CC(=O)CSc1nnc(Cc2ccc([N+](=O)[O-])cc2)o1 | 3 | 0.3 | -1 | 1.6 | 5.2%[38.3 µM] | 4
CCCCCN1CC(O)=C(c2nc3ccccc3[nH]2)C1=N | -1 | 0.7 | -6 | -7.8 | 1.8% | -24
Cc1ccc(-c2ocnc2C(=O)Nc2nc(C)cs2)cc1 | 7 | 0.2 | -9 | -3.3 | 7.1% | 3
CCN(CC)CCNc1oc(-c2ccccc2)nc1S(=O)(=O)c1ccccc1 | -9 | -0.7 | -38 | -4.8 | -0.4% | nt
NC(=O)C1CC(=O)N(c2ccc(OCC(=O)Nc3ccc(Cl)cc3)cc2)C1 (configuration not stated) | -7 | 0.1 | -5 | -4.0 | 0.1% | 0
CCOc1ccccc1N1CCN(CC(=O)Nc2nc(C)c(C(=O)N(C)C)s2)CC1 | 9 | -0.2 | -42 | -3.8 | 1.7% | -4
CS(=O)(=O)N(CC(=O)N1CCCC1)c1cc(C(F)(F)F)ccc1Cl | -5 | -0.2 | -7 | -3.7 | 1.0% | -6
O=C(NC(=S)Nc1ccc2c(c1)OCO2)c1ccccc1 | -16 | 0.7 | -2 | -3.0 | 0.5% | -9
CCC(O)(Cc1ccccn1)Cc1ccccn1 | 3 | 1.0 | -9 | -2.3 | 0.8% | 11
O=C(/C=C/c1ccc(Cl)cc1)Nn1c(-c2cccs2)nc2ccccc2c1=O | -1 | 1.3 | -7 | -2.5 | 3.9% | nt
CCN1CCN(CC(=O)N2N=C(c3cccs3)CC2c2ccc(C)cc2)C(=O)C1=O (configuration not stated) | 2 | 0.3 | -5 | 0.8 | -0.7% | -2
O=[N+]([O-])c1cccc(S(=O)(=O)c2ccc(NCCOCCO)c([N+](=O)[O-])c2)c1 | -10 | 1.2 | 14 | 13 | 2.0% | -6
CCOC(=O)c1ccccc1NC(=O)c1ccc2c(SCC(=O)O)c3c(nc2c1)CCCC3 | -7 | 1.3 | -8 | -0.1 | 6.6% | nt
O=C(Nc1ccc(Br)cc1Cl)c1cnccn1 | -6 | 0.0 | -3 | 1.3 | -0.3%[38.3 µM] | 0
COCCn1c(C)cc(C(=O)COC(=O)c2ccc([N+](=O)[O-])o2)c1C | -8 | -0.6 | 9 | 1.2 | 2.1% | -6
C/C(COc1ccccc1)=N\NC(=O)c1nnn(-c2nonc2N)c1CSc1ccc(C)cc1 | 42 | 1.0 | -12 | 0.2 | 0.2% | -7
COc1cc(C(=O)NC2CC2)cc(OC)c1OC | 9 | -0.2 | nt | nt | -0.4% | 5
COc1ccc(O)c(/C=N/NC(=O)CSc2nnc(C)n2-c2ccccc2)c1 | ? | 0.0 | -3 | 1.6 | 3.3% | ?
